Screens: PubChem, National Center for Advancing Translational Sciences (NCATS)
MARV entry inh – inhibitors of Marburg virus binding or cell entry. Marburg virus pseudotyped entry inhibition, cell reporter; control for the full effect not named in the record; about a third of the inactives were read at about 46 µM. Potency, µM (highest dose often 37.8 µM), for inactives: at the highest dose activity change, negative = inhibition, most hits filed as inhibitors. hit rate 1.8% among 300,000. AID 540276; active = well fitted inhibition curve with a large enough effect; inconclusive = small, poorly fitted or top-dose-only effect, or effect the other way; inactive = flat fitted curve, though single readings scatter; tested in HEK293 cells; about a fifth of its hits are not listed in these tables; also: % is scaled to controls: 0 for no effect and ±100 for the full control effect; luciferase read-out
LASV entry inh – blocks Lassa virus binding to or entry into cells | Lassa virus pseudotype entry inhibition, cell reporter; control for the full effect not named in the record | Potency, µM (doses to about 37.9 µM), without a hit: at the top dose activity change, negative = inhibition, most hits filed as inhibitors | hit rate 1.2% among 300,000; active means well fitted inhibition curve with a large enough effect; inconclusive means small, poorly fitted or top-dose-only effect, or effect the other way; inactive means flat fitted curve, though single readings scatter; tested in HEK293 cells; also: % is scaled to controls: 0 for no effect and ±100 for the full control effect; nearly all actives have a fitted effect of over 50% in size; luciferase read-out
SARS PLpro yeast – inhibitors of SARS-CoV papain-like protease in yeast | S. cerevisiae expressing SARS-CoV PLpro, growth rescue; control for the full effect not named in the record | AID 485353 | Potency, µM (series often up to 32.9 µM), for inactives: top-dose activity, positive = growth rescue | hit rate 0.19% among 330,000; active means well fitted rising curve with a large enough effect; inconclusive means small, poorly fitted or top-dose-only effect; inactive means no such curve, though single readings can be large or run the other way; also: 0% is about no effect; nearly all actives have a fitted effect of over 55% in size; growth read by luminescence after 48 h
Cruzain noTriton – cruzain (T. cruzi) inhibition without detergent; purified cruzain, Z-FR-AMC fluorescence, no detergent; hit rate 2.3% among 200,000; AID 1476; P25779; Potency, µM, without a hit: max response, negative = inhibition, hits mostly inhibitors;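 also: plate controls were enzyme without inhibitor for no effect and buffer without enzyme for full effect; nearly all actives have a fitted effect of over 40% in size; top concentration of the series not given in the record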
Target sequence (P25779 123-467 limits assumed): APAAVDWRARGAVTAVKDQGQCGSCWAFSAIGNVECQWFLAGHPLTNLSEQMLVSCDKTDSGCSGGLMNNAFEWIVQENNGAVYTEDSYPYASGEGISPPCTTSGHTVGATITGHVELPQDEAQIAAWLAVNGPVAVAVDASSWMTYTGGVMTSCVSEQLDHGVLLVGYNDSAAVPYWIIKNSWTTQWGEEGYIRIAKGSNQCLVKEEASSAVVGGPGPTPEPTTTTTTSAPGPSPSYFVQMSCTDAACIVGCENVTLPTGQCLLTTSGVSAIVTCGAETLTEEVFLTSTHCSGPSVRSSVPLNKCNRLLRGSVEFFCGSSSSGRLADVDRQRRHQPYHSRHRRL
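Detergent-free condition (0.00005% Triton X-100) in acetate buffer pH 5.5 with DTT. 1.5 nM enzyme and compound were pre-mixed 15 min, then 2 uM Z-FR-AMC substrate added; reaction progress from fluorescence change between first and third reads (60 s).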
NS1 inh – influenza NS1 inhibition. hit rate 0.4% among 270,000. S. cerevisiae slowed by influenza A NS1, growth recovery by OD600. Potency, µM (top dose mostly 46.1 µM), for the others: at the highest dose activity, positive = more growth; active means well fitted rising curve with a large enough effect; inconclusive means small, poorly fitted or top-dose-only effect; inactive means no such curve, though single readings can be large or run the other way; also: nearly all actives have a fitted effect of over 50% in size
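S. cerevisiae expressing influenza A NS1, grown in glucose, washed, then diluted 1:100 into pH 6.0 -URA galactose medium with 23 nl compound. Growth recovery read as OD600; NS1-free strain serves as control.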
RE007 growth inh – less growth of the S. pombe RE007 Vpr strain | AID 651644 | Potency, µM (doses to about 92.2 µM), without a hit: at the highest dose activity change, negative = less growth | hit rate 0.21% among 360,000 | S. pombe RE007 Vpr strain, BacTiter-Glo ATP luminescence, 24 h; control for the full effect not named in the record; active = well fitted falling curve with a large enough effect; inconclusive = small, poorly fitted or top-dose-only effect; inactive = no such curve, though single readings can be large or run the other way;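 also: % is scaled to controls: 0 for no effect and ±100 for the full control effect; nearly all actives have a fitted effect of over 50% in size; the assay follows cell death caused by Vpr and the record does not say whether a fall means rescue or toxicity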
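Fission yeast strain RE007, carrying one chromosomally integrated HIV-1 vpr copy, was seeded at OD 0.01 in PMG+AL medium with 23 nL pinned compound. After 24 h at 30 °C and 99% humidity, viability was read by BacTiter-Glo luminescence.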
Cruzain inh Det – cruzain (T. cruzi) inhibition with detergent. hit rate 0.43% among 200,000. purified cruzain, Z-FR-AMC fluorescence, 0.01% Triton. P25779. Potency, µM, for the others: max response, negative = inhibition, hits mostly inhibitors;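 also: plate controls were neutral wells for no effect and buffer without enzyme for full effect; nearly all actives have a fitted effect of over 40% in size; top concentration of the series not given in the record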
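Cruzain (1.5 nM) preincubated 15 min at RT with compound in 100 mM sodium acetate pH 5.5, 5 mM DTT, 0.01% Triton X-100. Reaction started with 2 uM Z-FR-AMC; AMC fluorescence (ex 360/em 450 nm) change over 60 s gave rate.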
StopGo reporter – lowers the luciferase signal of an FMDV 2A StopGo reporter. hit rate 1.2% among 410,000. AID 1159524. Potency, µM (highest dose often 57.9 µM), without a hit: at the highest dose signal change, negative = less light. human cells with a luciferase reporter of 2A StopGo recoding; control for the full effect not named in the record; active = well fitted falling curve with a large enough effect; inconclusive = small, poorly fitted or top-dose-only effect; inactive = no such curve, though single readings can be large or run the other way; tested in HEK293T cells; also: % is scaled to controls: 0 for no effect and ±100 for the full control effect; nearly all actives have a fitted effect of over 45% in size; luciferase light after 4 h
Starred values were filed as active, the others as inactive; ? = inconclusive; . = no result given; & = joins results of further samples; [ ] = remark or other dose. Unless noted, calls follow the shape of the dose curve; as a rule, active = well fitted curve in the direction sought with a large enough effect; inconclusive = small, poorly fitted or top-dose-only effect, or another doubt; inactive = no such curve, though single readings can be large; an effect the other way counts as inactive or inconclusive. Potency is read from the fitted curve at half-maximal effect.

Values run as follows: MARV entry inh, LASV entry inh, SARS PLpro yeast, Cruzain noTriton, NS1 inh, RE007 growth inh, Cruzain inh Det, StopGo reporter
[1] CCOc1ccc(/C(C)=N/N2C(=O)C(CC(=O)Nc3ccc(OC)cc3[N+](=O)[O-])SC2=Nc2cccc(C)c2C)cc1 (stereo not given)
 : 12%&13%, ?, 2%, 10µM*, 22%, 15%, -1.4%, -14%
[2] Cc1ccc(Nc2nc(N)nc(CSC(=S)N3CCOCC3)n2)c(C)c1
 : 3%, ?, 0%, -13%, -1%, 12%, -3.5%, 4%
[3] Cn1nc([N+](=O)[O-])nc1Sc1ccc(C(C)(C)C)cc1
 : 0%, 29%, ?, 9%, 3%, ?, -8.2%, -26%
[4] O=C(NCC(c1ccco1)N1CCc2ccccc21)c1cccc(F)c1 (stereo not given)
 : ?, 0%, -1%, ., ., 2%, ., ?
[5] CN1CC2(C)OC(=O)C(Cl)=C2CC1c1ccccc1 (stereo not given)
 : -10%, -3%, 7%, 8%, -4%, -4%, -0.7%, 0%
[6] CCOC(=O)C1=C(CN(CC)Cc2ccccc2)NC(=O)NC1c1ccc(Cl)cc1 (stereo not given)
 : ?, 5%[46.1 µM], ., -6%, ., ., -8.9%, ?
[7] O/N=C1\CCCCc2ccccc21
 : 5%, 4%, 17%, -7%, ?, -1%, 3.1%, .
[8] O=C(Nc1ccc(C(=O)N2CCN(c3ccccc3F)CC2)cc1)C1=CSCCO1
 : ., ., -3%, ., -17%, -12%, ., 24%
[9] COc1ccc(CCc2nnc(CCC(=O)N(C)Cc3ccncc3C)o2)cc1
 : ., ., 0%, ., 11%, 5%, ., 1%
[10] CCc1ccccc1NC(=O)C(CC)Oc1ccccc1-c1nnc(-c2ccccc2)o1 (stereo not given)
 : ., ?, ., -3%, ., ., -6.5%, ?
[11] CCCN1CCN(C(=O)CN2C(=O)COc3ccc(S(=O)(=O)N(CC)CC)cc32)CC1
 : 8%[46.1 µM], 24%[46.1 µM], 1%, ., -4%, 8%, ., -2%
[12] Cc1ccc(N2CC(O)=C(c3nc4ccccc4c(=O)[nH]3)C2=N)cc1C
 : ?, 0%, 0%, ., 7%, -1%, ., -20%
[13] CC1(C)CC(=O)C(c2ccccc2)(c2ccccc2)C(=O)C1
 : -14%, 15%, ., ., ., 4%, ., -17%
[14] CNS(=O)(=O)c1ccc(NC(=S)Nc2ccc3c(c2)OCO3)cc1
 : ?, 7%, -1%, ., 3%, 14%, ., 0%
[15] Cc1cc(C)cc(Nc2cc(C)nc3nncn23)c1
 : 6%[46.1 µM], -6%[46.1 µM], ., -8%, ., ., -2.3%, 4%

Next part; it opens with the two that closed the last part.
Values run as follows: MARV entry inh, LASV entry inh, SARS PLpro yeast, Cruzain noTriton, NS1 inh, RE007 growth inh, Cruzain inh Det, StopGo reporter
[14] CNS(=O)(=O)c1ccc(NC(=S)Nc2ccc3c(c2)OCO3)cc1
 : ?, 7%, -1%, ., 3%, 14%, ., 0%
[15] Cc1cc(C)cc(Nc2cc(C)nc3nncn23)c1
 : 6%[46.1 µM], -6%[46.1 µM], ., -8%, ., ., -2.3%, 4%
[16] COc1cccc(-c2nc(SCC(=O)NC3CCCC3)c(-c3ccc(F)cc3)[nH]2)c1
 : -14%[46.1 µM], ?, ., 1%, ., ., -7.0%, -13%
[17] Cc1noc(C)c1CSCC(=O)Nc1ccc(OC(F)F)c(Cl)c1
 : 5%, -17%, -2%, ., ., -2%, ., 15%
[18] COc1ccc(C(O)c2nc3ccccc3n2C(C)C)cc1 (stereo not given)
 : ., ., 1%, ., -33%, -18%, ., -10%
[19] CCSc1nc2c(c(=O)[nH]1)C(c1ccccn1)C1=C(CC(C)(C)CC1=O)N2 (stereo not given)
 : 9%, 3%, 3%, 3%, 0%, -1%, -6.1%, 5%
[20] CN1CCN(CC(=O)Nc2cccc([N+](=O)[O-])c2)CC1
 : ., ., 0%, ., 4%, 0%, ., -2%
[21] O=C(Nc1ccc(F)cc1)c1cc(Cl)sc1Cl
 : 0%[46.1 µM], -11%, -6%, ., ., 2%, ., -1%
[22] CCNc1nc(NCC)nc(N(n2cnnc2)S(=O)(=O)c2ccc(C)cc2)n1
 : -12%, -7%, 5%, -8%, 2%, -19%, -2.2%, -22%
[23] O=C(O)CC(NCc1ccco1)C(=O)OCCCl (stereo not given)
 : 27%[46.1 µM], -8%[46.1 µM], -2%, ., 1%, -9%, ., 16%
[24] CCC(=O)N1CCc2cc(S(=O)(=O)N(CC)c3cccc(C)c3)ccc21
 : -3%&-1%, ?, 2%, -24%, 5%, -14%, 5.8%, 0%
[25] CCn1c(=O)n(CC)c2cc(S(=O)(=O)Nc3cc(C)cc(C)c3C#N)ccc21
 : 11%, 4%, -1%, 12%, 6%, -4%, 2.0%, 24%
[26] COc1ccc(C2=NN(CCC(=O)NCc3cccs3)C(=O)CC2)cc1
 : 0%[46.1 µM], 11%, 0%, ., ., 21%, ., 9%
[27] CCc1ccccc1NC(=O)Cn1nc(CC)n2c(cc3sccc32)c1=O
 : 1%[46.1 µM], ., ., 11%, ., ., -1.2%, -19%
[28] OC(COc1ccc2cc(Br)ccc2c1)CN1CCOCC1 (stereo not given)
 : -23%, 2%, -4%, -20%, -16%, ?, -7.8%, 12%
[29] COc1ccc(-c2nnnn2CCc2ccccc2)cc1
 : 20%, 4%, 3%, -6%, -19%, -12%, -2.5%, 36%[activator]
[30] CCOC(=O)C1CCN(C(=O)CCC(=O)NCCc2ccc(Cl)cc2)CC1
 : 5%, 1%, -3%, ., -9%, -1%, ., -7%
[31] CC1=C(C(=O)OCCNC(=O)c2ccccc2O)C(c2ccccc2[N+](=O)[O-])C(C(=O)OCC2CCCO2)=C(C)N1 (stereo not given)
 : ?, 10µM*, -8%, 21%, 19%, -6%, -8.8%, 28µM*
[32] COc1ccc(CC(=O)Nc2ccc(S(=O)(=O)N3CCCC3)cc2)cc1OC
 : -30%, ?, 13%, ., ., 8%, ., ?
[33] CC1CCCCN1CCNC(=O)Cn1nc(-c2ccccc2)ccc1=O (stereo not given)
 : ?, 5%, -2%, -14%, 15%, 3%, 0.1%, .
[34] O=C1CC(N2CCC(c3nc4ccccc4o3)CC2)C(=O)N1c1ccc(F)cc1 (stereo not given)
 : -1%, -2%, -5%, ., -9%, ?, ., -18%
[35] CCOC(=O)C1(CCOC)CCN(C(=O)c2sccc2C)CC1
 : ., ., 0%, ., -4%, 15%, ., -5%
[36] Cc1nonc1NC(=O)OCCN1CCOC1=O
 : 10%, 13%, 2%, 4%, 4%, 4%, 2.2%, -11%
[37] COc1ccc(NC(=O)CN2CCCCC2)cc1
 : 4%, ?, 8%, 5%, 0%, 14%, 6.8%, 24%
[38] O=C(NC(=S)NNC(=O)c1cccs1)c1ccc(Br)o1
 : -21%, ?, 3%, -9%, -186%, -4%, 1.2%, 50%[activator]
[39] Cc1cc(C)nc(N/N=C/c2ccncc2)n1
 : -5%, ?, 0%, ., -4%, 9%, ., -4%
[40] Nc1nnnn1/N=C/c1ccccc1
 : 14%[46.1 µM], ?, 1%, ., 2%, 2%, ., 11%
[41] Cc1ccc(NS(=O)(=O)c2c(C)[nH]c(=O)[nH]c2=O)cc1F
 : ., ., 2%, ., 2%, 1%, ., -7%
[42] COCCNC(=S)N(CCc1c(C)[nH]c2ccc(F)cc12)Cc1ccco1
 : ., ., -2%, ., -5%, -12%, ., -7%
[43] CCN(CC(=O)Nc1ccc2c(c1)OCCO2)C(=O)c1cc(=O)[nH]c2ccccc12
 : 2%, -6%, 4%, ., ., -12%, ., 6%
[44] CN(C)S(=O)(=O)c1cccc(COc2ccccc2C(=O)Nc2ccccc2)c1
 : ?, ?, -6%, ., 3%, -6%, ., 0%
[45] COc1cc(OC)c(C2C=C(C(=O)O)Nc3ncnn32)cc1OC (stereo not given)
 : 1%[46.1 µM], 3%[46.1 µM], ., -8%, ., ., -1.1%, -8%
[46] COCCN1CCN(C(=O)c2cc(COc3ccc(F)cc3Cl)on2)CC1
 : 17%, 3%, -1%, ., -4%, -4%, ., 0%
[47] COc1ccc(CCNC(=O)CC(Cc2ccc(C)cc2)C(=O)O)cc1OC (stereo not given)
 : ., ., 0%, ., 4%, -6%, ., 7%
[48] Cc1oc2c(C)c3oc(=O)c4c(c3cc2c1C)CCCC4
 : -29%, 6%, -5%, 3%, -10%, 10%, 0.2%, 0%
[49] Cc1cc(C)nc(S/C=C/C(=O)c2ccccc2)n1
 : -3%[46.1 µM], ?, -5%, ., -79%, 8%, ., 13µM*
[50] O=C(COC(=O)c1ccc(O)cc1)c1ccc(S(=O)(=O)N2CCCCC2)cc1
 : 12%, ?, 4%, ., ., 2%, ., ?
[51] Clc1ccc(CN2C3=NCCCN3c3ccccc32)cc1
 : ?, -26%, 2%, 10%, -13%, 1%, 3.2%, -26%
[52] Cc1ccc(S(=O)(=O)N2CCN(C(=O)C(F)(F)F)C2c2ccc(N(C)C)cc2)cc1 (stereo not given)
 : 12%[46.1 µM], ., -5%, ., 2%, -16%, ., -10%
[53] COc1ccc(C(=O)NC(Cc2c[nH]c3ccccc23)C(=O)O)cc1 (stereo not given)
 : ., ., 2%, ., 7%, 1%, ., 6%
[54] CCOC(=O)c1ccccc1NC(=O)N1CCCn2nc(C)cc21
 : ., ?, ., 1%, ., ., -2.8%, -28%
[55] COc1ccc(-c2noc(=O)n2Cc2ccccc2F)cc1
 : ., ., -4%, ., -2%, 25%, ., -14%
[56] COc1ccc(C(=O)N2CCN(C(=O)CC(C)C)CC2)cc1OC
 : -3%, 4%, 5%, 9%, -13%, -1%, -1.5%, -25%
[57] Cc1cc(C)c(NC(=S)N(CCN(C)C)Cc2cccs2)c(C)c1
 : ?, -8%, 0%, ., ., -15%, ., 1%
[58] COc1ccc(O)c(C(=O)CC(=O)c2ccncc2)c1
 : ?, -3%[46.1 µM], ., ., ., -10%, ., 12%
